# Sa growth 42C: blocks Staphylococcus aureus growth; S. aureus RN4220 growth, OD600, 20 h, 42 °C; hits give low values; relative growth, % (test concentration not listed); 170,000 compounds, 0.53% hits; AID 720641;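 active = growth at 42 °C up to 50% and 20 or more points under that at 30 °C, or under 10% at both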;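 note: 300 nL library stock went into each well; scaled to the means of positive and negative controls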
# GIV Gai3 FP: GIV-Galpha-i interaction inhibition. 210,000 compounds, 0.42% hits. AID 1224905. P08753. Galpha-i3/FITC-GIV peptide fluorescence polarization, 90 min; hits give low values; scaled: aluminum fluoride 0%, vehicle 100%. percent of control (FP), % (no concentration beside the values);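 active = replicate mean at 85% of control or lower, very high polarization wells dropped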;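 note: wells of about 15 µL received 100 nL stock; the first replicate is given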
# Target sequence (P08753 whole entry, looked up): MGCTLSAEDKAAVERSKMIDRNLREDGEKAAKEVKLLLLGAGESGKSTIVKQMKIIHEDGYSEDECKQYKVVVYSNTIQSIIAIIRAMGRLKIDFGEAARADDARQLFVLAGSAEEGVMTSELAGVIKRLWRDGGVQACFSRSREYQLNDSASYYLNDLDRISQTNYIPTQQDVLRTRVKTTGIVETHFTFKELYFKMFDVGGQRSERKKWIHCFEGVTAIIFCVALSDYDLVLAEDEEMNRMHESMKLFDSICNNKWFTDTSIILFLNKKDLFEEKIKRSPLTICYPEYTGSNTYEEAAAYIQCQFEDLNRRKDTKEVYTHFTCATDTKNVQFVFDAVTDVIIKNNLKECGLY
# HCMV NEC inh: cytomegalovirus nuclear egress complex inhibition. HTRF UL50-UL53 interaction, normalized percent inhibition. inhibition, % (no concentration beside the values). 190,000 compounds, 0.15% hits. AID 1918969;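 active = both replicates at 50% or more, plus weaker picks with an unusually low signal ratio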;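 note: stock transfer was 100 nL into about 20 µL; 0% = negative control wells and 100% = wells with untagged competitor protein; inactives centre near -12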
# Sa growth 42C second temp: second read-out of Sa growth 42C, no call of its own (marks repeat the call); relative growth, %; measured here: growth at 30 °C;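 optical density after 20 h as mean of two plates; 100% = untreated growth and lower means inhibition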
# * = called active by the depositor; . = no result given.
SMILES,Sa growth 42C,Sa growth 42C second temp,GIV Gai3 FP,HCMV NEC inh
O=C(NCC1CCN(Cc2cccc(Cl)c2)CC1)Nc1ccc(F)c(Cl)c1,107,61,101,1
CC(Nc1ccc(Br)cc1)C(=O)Nc1cccc(Cl)c1Cl (stereo not given),106,98,.,-2
COc1cc(OC)c(NC(=O)CCn2cnc3onc(-c4ccc(F)cc4)c3c2=O)cc1Cl,96,100,99,.
CCOC(=O)c1ccc(Nc2c(-c3ccc(OC)cc3)nc3nc[nH]n23)cc1,100,87,103,.
CC1=NOC2(O)CC3C(C12)C3(C)C (stereo not given),102,103,98,-10
O=C(c1ccc(F)cc1)n1c(NCc2ccccc2)n[nH]c1=S,90,98,105,5
CCOC(=O)c1c(-c2ccc(Cl)cc2)nn2c1NCN(CCc1ccccc1)C2,96,69,100,.
Cc1ccc(NC(=O)c2ccc3nc(N4CCOCC4)sc3c2)cc1,109,87,104,0
Cc1ccccc1-c1nnc(NC(=O)CC(C)C)s1,100,81,99,2
COc1ccccc1N1CCN(C(CNC(=O)C(=O)NCc2ccc(C)cc2)c2cccnc2)CC1 (stereo not given),111,84,104,-17
COC(=O)C1C2C=CC3(CN(CCc4ccccc4)C(=O)C13)O2 (stereo not given),98,89,100,5
CCCS(=O)(=O)c1ncc(Cl)c(C(=O)N(Cc2ccccc2)Cc2ccco2)n1,1.2*,12*,101,-8
COc1ccc(/C=C\c2onc(C)c2S(=O)(=O)N2CCC(C(=O)N(C)Cc3ccccc3)CC2)cc1,.,.,104,-6
CCc1ccc(Sc2cc(C(=O)NCc3cccnc3)c3ccccc3n2)cc1,99,66,100,.
COc1ccc(-c2c(C)[nH]n3c(=O)c(C)c(C)nc23)cc1,.,.,100,20
O=C(Nc1ccc2nc(SCC(=O)N3CCOCC3)sc2c1)c1cccc(Cl)c1,93,43,102,-20
Cc1ccc(C(=O)NCCN2CCCC2)cc1,120,89,.,6
COc1cccc(-n2c(CNC(=O)OC(C)(C)C)n[nH]c2=S)c1,112,83,104,-2
O=C(CC1SC(=NC2CC2)NC1=O)Nc1ccc(Oc2ccccc2)cc1 (stereo not given),67,96,.,-19
CC1(C)C(c2ccccc2)=NC(c2ccccc2)N1O (stereo not given),84,75,99,-11
COc1ccc(C(=O)c2sc(Nc3ccccc3)nc2N)cc1,127,94,107,.
CN(C)c1ccc(CNS(=O)(=O)c2ccc(-c3cc(C(F)(F)F)on3)s2)cc1,101,89,103,.
COc1ccc(OCCn2c(NC(=O)c3ccco3)nc3ccccc32)cc1,84,88,106,2
CN1CCN(C(=O)c2cc3cccnc3n(Cc3ccc(F)cc3)c2=O)CC1,.,.,110,-12
S=c1[nH]nc(/N=C/c2ccc(Br)cc2)n1Cc1ccccc1,99,99,106,4
CCC(C)N(C(=O)CSc1nc2ccccc2n1-c1ccc(C)cc1)C1CCS(=O)(=O)C1 (stereo not given),85,103,.,-7
Cc1ccc(S(=O)(=O)N2CCN(C(=O)c3cc(=O)[nH]c4ccccc34)CC2)c(C)c1,94,85,.,-21
CN(Cc1cc2ccccc2[nH]c1=O)C(=O)c1cccc(Cl)c1,.,.,98,23
O=c1[nH]c2ccc(NCc3ccc(-c4cccc(Cl)c4)o3)cc2[nH]1,89,98,102,-1
O=C(Nc1ccc(S(=O)(=O)N2CCCCCC2)cc1)c1ccncc1,94,97,95,-10
COc1ccc(NC(=O)C2CCN(c3nc(-c4ccc(OC)c(OC)c4)no3)CC2)cc1Cl,100,88,104,-20
Cc1cccc(N2C(=O)C(Oc3ccc(Cl)cc3Cl)C2C(=O)O)c1C (stereo not given),106,83,101,-14
COC(=O)C1=C(C)OC(N)=C(C#N)C1c1c(F)c(F)c(F)c(F)c1F (stereo not given),.,.,107,21
Clc1ccc(C=NC23CN4CN(CN(C4)C2)C3)cc1,98,115,100,8
Cc1c(Cl)cccc1NC(=O)c1ccc2nc(C(C)C)oc2c1,84,90,101,.
CCOc1ccc(CNC(=O)c2sc(-n3cccc3)nc2C(F)(F)F)cc1OC,.,.,102,-12
Cc1nc2ncnn2c(Nc2cccc3c2CCCC3)c1C,.,.,108,0
CCn1c(-c2ccc(OC)cc2)nc2ccccc21,88,69,.,-6
CC1Cc2ccccc2N1C(=O)CSC1=C(C#N)C(c2ccccc2F)CC(=O)N1 (stereo not given),121,99,100,-8
Cc1nc(N2CCCC2)c2c(C(=O)N3CCN(c4cc(Cl)ccc4C)CC3)c(C)oc2n1,80,53,101,.

# Molecules listed so far containing an aryl methoxy group, in the order listed:
SMILES,Sa growth 42C,Sa growth 42C second temp,GIV Gai3 FP,HCMV NEC inh
COc1cc(OC)c(NC(=O)CCn2cnc3onc(-c4ccc(F)cc4)c3c2=O)cc1Cl,96,100,99,.
CCOC(=O)c1ccc(Nc2c(-c3ccc(OC)cc3)nc3nc[nH]n23)cc1,100,87,103,.
COc1ccccc1N1CCN(C(CNC(=O)C(=O)NCc2ccc(C)cc2)c2cccnc2)CC1 (stereo not given),111,84,104,-17
COc1ccc(/C=C\c2onc(C)c2S(=O)(=O)N2CCC(C(=O)N(C)Cc3ccccc3)CC2)cc1,.,.,104,-6
COc1ccc(-c2c(C)[nH]n3c(=O)c(C)c(C)nc23)cc1,.,.,100,20
COc1cccc(-n2c(CNC(=O)OC(C)(C)C)n[nH]c2=S)c1,112,83,104,-2
COc1ccc(C(=O)c2sc(Nc3ccccc3)nc2N)cc1,127,94,107,.
COc1ccc(OCCn2c(NC(=O)c3ccco3)nc3ccccc32)cc1,84,88,106,2
COc1ccc(NC(=O)C2CCN(c3nc(-c4ccc(OC)c(OC)c4)no3)CC2)cc1Cl,100,88,104,-20
CCOc1ccc(CNC(=O)c2sc(-n3cccc3)nc2C(F)(F)F)cc1OC,.,.,102,-12
CCn1c(-c2ccc(OC)cc2)nc2ccccc21,88,69,.,-6

# The results go on.
SMILES,Sa growth 42C,Sa growth 42C second temp,GIV Gai3 FP,HCMV NEC inh
CCOC(=O)c1nnn(-c2nonc2-n2cccc2)c1C,111,92,109,-4
CCN(CC(=O)Nc1ccc2c(c1)OCCO2)C(=O)c1cccc(S(=O)(=O)N2CCOCC2)c1,90,85,.,-15
Cn1c(C(C#N)C(=O)c2ccc3c(c2)S(=O)(=O)c2ccccc2C3=O)nc2ccccc21 (stereo not given),77,80,.,-38
Cc1oc2ncn(C)c(=O)c2c1C(=O)NCCCN(Cc1ccccc1)C(C)C,108,92,104,.
O=C(O)CN1C(=O)/C(=C\c2cc([N+](=O)[O-])ccc2O)SC1=S,.,.,133,-77
O=C1/C(=C/c2ccc3nccnc3c2)Cc2ccccc21,87,91,112,-10
CCCNC(=O)c1oc(=O)c2ccccc2c1-c1ccc(C)cc1,72,77,109,.
Cc1cc(C)nc(NS(=O)(=O)c2ccc(NC(=O)c3cc(=O)c4ccc(C)c(C)c4o3)cc2)n1,86,61,98,-61
CCN(Cc1ccccc1)C(=O)c1nn(-c2ccc(OC)cc2)c(=O)c2c1c1ccccc1n2C,97,86,104,-12
CSC1=NC2(CCN(C(=O)NC3CCCCC3)CC2)N=C1c1ccc(C)cc1,79,89,108,.
Cc1ccc(OCCn2c(=O)oc3ccccc32)cc1,83,69,100,-1
Cc1ccc2ncnc(NC(CC(C)C)C(=O)O)c2c1 (stereo not given),84,88,100,-8
O=C(NCc1ccccc1Cl)C1CCCN(c2ncnc3c2nc2n3CCCCC2)C1 (stereo not given),110,78,101,.
CCOC(=O)c1c(CNCCN(CC)CC)n(C)c2cc(Br)c(OC)cc12,.,.,96,-7
CCOc1ccc(CCNC(=O)c2nnc(Cc3cc(OC)c(OC)c(OC)c3)o2)cc1OCC,96,87,104,-3
O=c1[nH]oc2nc(C3CC3)cc(C(F)(F)F)c12,97,37,112,-49
COc1cc(N2C(=O)CSC23C(=O)N(Cc2ccc(C)cc2)c2ccccc23)cc(OC)c1OC (stereo not given),92,76,97,.
O=c1c(C=NCCCn2ccnc2)c(CSc2ccc(Cl)cc2)[nH]n1-c1nc2ccccc2s1,.,.,101,-7
Cc1noc(NS(=O)(=O)c2ccc(NC(=O)CSc3nc4c(cc3C#N)CCC4)cc2)c1C,88,81,105,-38
Cc1ccc2ccc3cc(C(=O)NC4CCCC4)nc3c2[nH]1,.,.,112,-2
Cc1cc(=O)[nH]c(O)c1C#N,127,92,.,-8
O=C(Nc1cccc(Cl)c1)C1CCN(c2ccccc2)C1=O (stereo not given),.,.,100,-18
CCOc1ccc(C(=O)NCC(=O)N2CCN(Cc3ccccc3)CC2)cc1,88,87,.,-9
CC(C)c1ccc(NC(=O)CN2C(=O)COc3ccc(S(=O)(=O)N4CCCCCC4)cc32)cc1,107,88,112,.
CC1CN(Cc2cc(=O)n3c(-c4ccccc4)csc3n2)CC(C)O1 (stereo not given),117,106,.,-4
CCOC(=O)C1=C(C)N=c2s/c(=C/c3ccc(C)cc3)c(=O)n2C1c1ccc(OC(C)=O)c(OC)c1 (stereo not given),.,.,97,-9
O=C(O)c1ccc(-c2ccccc2)s1,88,103,109,.
COc1ccc(OC)c2c1cc1n2CC(C)(C(=O)NC2CCCC2)N(CCN2CCCC2)C1=O (stereo not given),.,.,105,-24
O=C(CC1SCCNC1=O)Nc1ccc(Br)cc1 (stereo not given),.,.,98,-8
COc1ccc(NC(=O)CSc2nc3nc(C)cc(C)n3n2)cc1OC,119,84,104,.
CCc1nn(C(=O)c2ccccc2)c2c1C(=O)CC(C)(C)C2,93,87,.,-22
CCC1CN(C(=O)c2ccc(-c3noc(C)n3)cc2)c2cc(Cl)ccc2O1 (stereo not given),.,.,101,-23
CCOc1ccc(NS(=O)(=O)c2cc(CN3C(=O)C4CCCCC4C3=O)ccc2C)cc1 (stereo not given),.,.,97,15
O=c1oc(Nc2ccccc2)nc2ccccc12,96,98,102,4
CC1=[N+]([O-])C(C)(C)C(c2ccc(C)cc2)=[N+]1[O-],91,89,96,-10
Cc1noc(/C=C/c2cccs2)c1S(=O)(=O)N1CCCC(C(=O)Nc2nccs2)C1 (stereo not given),96,88,98,-30
Cc1ccc(N/C(N)=N/c2nc(CSc3nnc(N)s3)cc(=O)[nH]2)cc1,91,87,109,-31
Cc1ccc(NS(=O)(=O)c2c(C)nc3sc(C)cn3c2=O)c(C)c1,124,79,105,.
O=C(O)c1ccc(N2N=C(C(F)(F)F)/C(=C/c3ccc(OC(=O)c4cccs4)cc3)C2=O)cc1,79,59,98,.
COc1ccc(Cl)cc1NC(=O)NCC1CCN(Cc2cc(C)ccc2C)CC1,.,.,107,0
COC(CNC(=O)CC1C(=O)N(Cc2ccccc2)C(C)c2nc3ccccc3n21)OC (stereo not given),110,93,101,.
COc1cc2c(cc1OC)C(C(=O)N1CCC(Cc3ccccc3)CC1)C1c3ccccc3CCN1C2=O (stereo not given),.,.,102,-18
CN(C(=O)CSc1nnc(-c2ccc([N+](=O)[O-])cc2)o1)c1ccccc1,102,72,99,-79
Cc1nn(C)c(C)c1S(=O)(=O)N1CCN(C(=O)c2cc3ccccc3[nH]2)CC1,.,.,105,-14
O=C(c1nc(-c2ccccc2)n(-c2ccc(F)cc2)n1)N1CCc2ccccc2C1,.,.,105,-19
Nn1c(SCC(=O)N2CCCC2)nnc1-c1ccco1,96,97,.,3
CCc1nc2c(cnn2-c2ccccc2)c(=O)n1-c1ccc(C)cc1,97,105,104,-6
c1ccc2sc(SCc3cn4ccsc4n3)nc2c1,105,78,110,-5
Cc1ccc(-c2sc(=S)n3c4ccccc4c(=O)n(Cc4ccc(C#N)cc4)c23)cc1,119,92,96,.
Cc1c2cnn(-c3ccccc3)c(=O)c2c(C)n1CCCC(=O)NC1CCCCCC1,94,79,100,.
CN1CCc2c(n(CC(O)CNCc3ccccc3)c3ccccc23)C1=O (stereo not given),116,75,107,.
O=C1CN(C(=O)Cn2ncc(Cl)c(Cl)c2=O)c2ccccc2N1,101,95,.,-84
O=C1NC2=C(C(=O)CCC2)C(c2ccc(Cl)cc2)N1 (stereo not given),119,84,.,-28
CC(=O)Nc1nc(SCC(C)C)n[nH]1,99,85,.,-14
CC(C)(C)c1nc(NCC2CCCO2)c2nnn(Cc3ccccc3Cl)c2n1 (stereo not given),95,91,106,4
COC(=O)c1ccc(-c2ccco2)n1CC(=O)N1CCN(c2cccc(OC)c2)CC1,113,91,104,-1
Cc1cc(C(=O)O/N=C(\N)c2cc(C)on2)no1,93,87,100,-23
CCOC(=O)c1c(C)sc(-c2c(-c3ccc4c(c3)OCCO4)[nH]c3c2c(=O)[nH]c(=O)n3C)c1O,92,73,278,6
Cc1ccc2[nH]c(C(=O)Nc3nccs3)cc2c1,.,.,103,-21
O=C(NC1CC1)c1ccc(Cn2c(SCc3ccccc3F)nc3cccnc32)cc1,107,92,109,.

# Additional entries follow:
SMILES,Sa growth 42C,Sa growth 42C second temp,GIV Gai3 FP,HCMV NEC inh
O=c1[nH]cnc2c(-c3ccc(Cl)cc3)nsc12,98,84,100,-7
CCOC(=O)c1ccccc1NC(=O)Cn1cc(C(=O)c2ccc(Br)cc2)c(=O)c2ccc(C)nc21,.,.,113,5
CCOC(=O)c1cc(-c2ccccc2)n(CCC(=O)N(C)C2CCCCC2)c1C,101,93,101,.
CCOC(=O)N1CCN(c2ncc3c(n2)CC(c2ccc(Cl)cc2)CC3=O)CC1 (stereo not given),106,85,105,-17
COc1ccc2c(c1)N(C)/C(=C1/SC(=O)N(c3ccccc3)C1=O)S2,108,76,107,-1
Cc1ccc2nc(-c3ccc(N=Cc4ccc[nH]4)cc3)sc2c1,91,79,.,-14
